Measles inh = inhibitors of measles virus growth in infected cells. infected Vero cells, GFP fluorescence, 64 h; hits give low values. z-score (no concentration beside the values). hit rate 0.1% among 33,000. AID 745;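 active = z-score under -3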;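 also: score is relative to mean and SD of the compound wells of a plate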
An asterisk follows results filed as active. Not all compounds are listed; count on the stated rates, not on these rows.

Sample of the layout, 3 compounds:
Measles inh | Structure
-0.12 | O=C(NCCc1ccccc1Cl)C1CCC(Cn2c(=O)[nH]c3ccccc3c2=O)CC1 (centres undefined)
-0.13 | COc1ccc([N+](=O)[O-])cc1S(=O)(=O)Nc1cc(C)c(NS(=O)(=O)c2ccc(C)cc2)cc1C
0.73 | COc1ccc(N2C(=O)C3CCCCC3C2=O)c(OC)c1 (centres undefined)

The list itself, from the first entry:
Measles inh | Structure
-0.12 | O=C(NCCc1ccccc1Cl)C1CCC(Cn2c(=O)[nH]c3ccccc3c2=O)CC1 (centres undefined)
-0.13 | COc1ccc([N+](=O)[O-])cc1S(=O)(=O)Nc1cc(C)c(NS(=O)(=O)c2ccc(C)cc2)cc1C
0.73 | COc1ccc(N2C(=O)C3CCCCC3C2=O)c(OC)c1 (centres undefined)
0.05 | CCOC(=O)C1CCN(S(=O)(=O)Cc2ccccc2)C1=O (centres undefined)
-1.38 | Cc1ccc2c(c1)c(=O)c1ccccc1n2CC(=O)N1CCN(c2ccccc2F)CC1
0.87 | c1ccc(CCn2c3ccccc3c3nnc(SCCN4CCOCC4)nc32)cc1
0.73 | O=C(Nc1ccc(I)cc1)c1ccc(C(=O)Nc2ccc(I)cc2)cc1
1.89 | CC1CCN(C(=O)c2c(NC(=O)c3cccs3)sc3c2CCC(C(C)(C)C)C3)CC1 (centres undefined)
0.38 | CC12CCC(C(=O)N3CCc4ccccc4C3)(OC1=O)C2(C)C (centres undefined)
0.13 | Brc1ccccc1C1Nc2ccccc2C2C=CCC21 (centres undefined)
0.05 | Fc1ccc(CSc2nc(NCc3ccccc3)c3ccccc3n2)cc1
-1.7 | Cc1ccc(-n2cnc3cc(C(=O)NCC4CCCO4)ccc32)cc1Cl (centres undefined)
0.68 | CCC(C)n1c(SCc2ccccc2F)nc2ccsc2c1=O (centres undefined)
-0.57 | Cc1ccc(-n2c(=O)c3ccccc3c3ccccc3c2=O)cc1
-1.39 | Brc1ccc(-c2nc3ccccc3nc2-c2ccccc2)cc1
-0.91 | O=C(O)c1ccc(S(=O)(=O)N2CCOCC2)cc1
0.45 | COc1ccccc1C(=O)Nc1cccc2c1C(=O)c1ccccc1C2=O
-1.22 | O=C(Nc1nc(-c2cc3ccccc3oc2=O)cs1)c1ccco1
0.31 | CCc1nc(N2CCCC2)c(C#N)c2c1CCCC2
-0.04 | CC(CCc1ccccc1)NS(=O)(=O)c1ccc2[nH]c(=O)sc2c1 (centres undefined)
-2.93 | Cc1cc(=O)n2c([nH]c3ccccc32)c1C#N
0.26 | CCc1cccc(NC(=O)Cn2c(=O)n(Cc3ccc4c(c3)OCO4)c(=O)c3ccccc32)c1
0.03 | CCC(C)OC(=O)C1=C(C)NC2=C(C(=O)CC(c3ccc(Cl)cc3)C2)C1c1ccc(OC(C)=O)cc1 (centres undefined)
0.09 | CCc1ccc(N2COc3ccc4cc(Br)ccc4c3C2)cc1

A stretch of the results above, for reference:
Measles inh | Structure
-0.12 | O=C(NCCc1ccccc1Cl)C1CCC(Cn2c(=O)[nH]c3ccccc3c2=O)CC1 (centres undefined)
-0.13 | COc1ccc([N+](=O)[O-])cc1S(=O)(=O)Nc1cc(C)c(NS(=O)(=O)c2ccc(C)cc2)cc1C
0.73 | COc1ccc(N2C(=O)C3CCCCC3C2=O)c(OC)c1 (centres undefined)
0.05 | CCOC(=O)C1CCN(S(=O)(=O)Cc2ccccc2)C1=O (centres undefined)

(next part)
Measles inh | Structure
-0.66 | O=[N+]([O-])c1ccc2nc(-c3ccccn3)[nH]c2c1
-1.19 | O=C(CCS(=O)(=O)c1cccs1)Nc1ccc(C(=O)NC2CCCc3ccccc32)cc1 (centres undefined)
0.37 | O=C(CN1C(=O)COc2ccccc21)NCCCN1CCCC1
0.26 | CCOc1ccc2c(=O)c(Oc3ccccc3)c(C(F)(F)F)oc2c1
-0.73 | Cc1cccc(C2(c3cccc(C)c3)CC2C(=O)NCc2ccco2)c1 (centres undefined)
-0.03 | CCc1[nH]c(C)c(C(C)=O)c1C
-0.2 | CCn1ncc(Br)c1C(=O)Nc1ccc(S(=O)(=O)Nc2ccc(OC)cc2)cc1
-0.09 | CCC1Oc2ccccc2N(CC(=O)NCCN2CCN(c3ccc(OC)cc3)CC2)C1=O (centres undefined)

Random excerpt: 2 records from the list
Measles inh | Structure
-1.19 | O=C(CCS(=O)(=O)c1cccs1)Nc1ccc(C(=O)NC2CCCc3ccccc32)cc1 (centres undefined)
-0.73 | Cc1cccc(C2(c3cccc(C)c3)CC2C(=O)NCc2ccco2)c1 (centres undefined)

Following part:
Measles inh | Structure
0.22 | COc1cc(-n2c(=O)c3ccccc3n(Cc3ccccc3C)c2=O)cc(OC)c1OC
0.54 | CC(=O)c1ccc(OCc2c(C)noc2C)cc1
-0.78 | CCCS(=O)(=O)N1CCN(C(=O)c2ccncc2)CC1
-0.14 | CCSc1sc(CC)cc1C1C(C(=O)Nc2cccnc2)=C(C)NC2=C1C(=O)CC(C)(C)C2 (centres undefined)
-0.12 | Cc1ccc(C)c(Oc2coc3cc(OC(=O)c4ccco4)ccc3c2=O)c1
0.01 | CCCCn1c(SCC(=O)N2CCN(c3ccccc3)CC2)nc2ccsc2c1=O
2.42 | CC1=CC(C)(C)Nc2ccc(OC(=O)c3ccccc3Cl)cc21
-0.43 | COc1ccc(C(=O)NCc2nc3ccccc3n2C(C)C)cc1OC
-0.11 | O=C1CC(c2cccc(Br)c2)n2ncnc2N1 (centres undefined)
-0.73 | Cc1cc(-c2csc(Nc3ccc(C(=O)O)c(O)c3)n2)ccc1F
-0.5 | O=C1CC(c2ccc(Cl)cc2)c2c(ccc3ccccc23)N1 (centres undefined)
-0.2 | O=C(CNC(=O)c1ccco1)OCc1ccc(Cl)cc1
0.42 | CCSc1nnc2c(n1)OC(c1cccnc1)N(C(C)=O)c1ccccc1-2 (centres undefined)
-0.08 | CC(CN1CCCC1)OC(=O)c1ccccc1Cl (centres undefined)
-0.23 | COc1cc2c3c(c1)-c1c(sn(-c4ccc(C)c(C)c4)c1=S)C(C)(C)N3C(=O)C2=O
-0.72 | CCn1nc(C)c(C2NC(=O)c3ccccc3N2)c1C (centres undefined)
-0.25 | CCN(CCCNC(=O)c1ccc2c(c1)NC(=O)c1ccccc1N2)c1cccc(C)c1
0.27 | O=C(Cn1cnc2ccccc2c1=O)NCCC(=O)N1CCCCC1
-2.25 | CC1=C(C(=O)Nc2cccc(C(F)(F)F)c2)C(c2ccc3c(c2)OCO3)C2=C(CCCC2=O)N1 (centres undefined)
-0.67 | CC(c1ccccc1)C(Cc1nc2ccccc2[nH]1)c1nc2ccccc2[nH]1 (centres undefined)
-0.39 | COc1ccc(C2CC(=O)C=C(Nc3ccc(OC)cc3OC)C2)cc1 (centres undefined)
0.5 | Cc1ccc(CCN2CC(C(=O)NCc3cccnc3)CC2=O)cc1 (centres undefined)
-0.14 | COc1ccc(N2CC34C=CC(O3)C(C(=O)OCc3ccccc3)C4C2=O)cc1 (centres undefined)
-0.18 | CCC(=O)N1CCc2cc(S(=O)(=O)N(CC)c3cccc(C)c3)ccc21
0.35 | COc1ccc(C2C(Oc3ccccc3C)C(=O)N2c2cccc(C(F)(F)F)c2)cc1OC (centres undefined)
0.22 | CN(C)S(=O)(=O)c1cc(S(=O)(=O)N(C)C)c2cccc3c2c1NC3=O
-1.41 | OC(COc1ccc(F)cc1)CN1CCN(c2cccc(Cl)c2)CC1 (centres undefined)
1.21 | O=C(Nc1cccc2ccccc12)c1cccc(N=Cc2cc(Cl)cc([N+](=O)[O-])c2O)c1
-0.7 | COc1ccc(O)c(C=Nc2cc(C(F)(F)F)ccc2Oc2ccccc2)c1
-0.34 | CCOC(=O)c1c(NC(=O)c2ccncc2)sc2c1CCC2
0.96 | Cn1nc([N+](=O)[O-])nc1Sc1ccc(C(C)(C)C)cc1
0.07 | NC(=O)c1c(NC(=O)C2CCCO2)sc2c1CCCC2 (centres undefined)
1.54 | COc1ccc(S(=O)(=O)N2CCC(C(=O)Nc3ccc(Oc4ccccc4)cc3)CC2)cc1
-0.05 | Cc1ccc(C2c3sc(=O)[nH]c3SC3C4CC(C5C(=O)N(CCC(=O)O)C(=O)C45)C23)cc1 (centres undefined)
2.35 | CC1=CC(=C2CCC[n+]3c2sc2ccccc23)CC(C)(C)C1
2.79 | Cc1ccc(Cn2ccc(NC(=O)c3cc(C)on3)n2)cc1
-1.17 | COc1cc(C(=O)N2CCN(C(=O)COc3ccc(Cl)cc3)CC2)cc(OC)c1OC
-0.83 | O=C1CC2c3ccccc3C1C1C(=O)N(c3cccc(C(F)(F)F)c3)C(=O)C21 (centres undefined)
0.56 | Cc1cc(C)c(S(=O)(=O)NCC2CCC(C(=O)NCCc3ccc(Cl)cc3)CC2)c(C)c1 (centres undefined)
2.21 | O=C(NC1CC1)c1cc(-c2cccnc2)nc2ccccc12
0.9 | CC1=NN(C(=O)c2ccco2)C(O)(c2ccccc2)C1 (centres undefined)
0.32 | CCOc1ccc(-n2c(SCC(=O)Nc3ccccc3)nc3c([nH]c4ccccc43)c2=O)cc1
-0.38 | COc1cc(Br)c(C2CC(=O)Nc3cc4c(cc32)OCCO4)cc1OC (centres undefined)
0.66 | COc1ccc(C2c3sc(=O)[nH]c3SC3C(=O)N(c4ccc(Br)cc4)C(=O)C32)cc1 (centres undefined)
2.16 | CC1=C(C(=O)OC2CCCCC2)C(c2cc3c(cc2Br)OCO3)C2=C(CC(c3ccccc3)CC2=O)N1 (centres undefined)
0.41 | O=S(=O)(NCc1ccc(Br)cc1)c1ccc(F)cc1
0.61 | CN(C)S(=O)(=O)c1ccc(C(=O)NCCn2ccc3ccccc32)cc1
-0.1 | Cc1noc(C)c1CSc1ccc2ccccc2n1

Arranged by value in Measles inh (highest first): four from the list above
Measles inh | Structure
2.16 | CC1=C(C(=O)OC2CCCCC2)C(c2cc3c(cc2Br)OCO3)C2=C(CC(c3ccccc3)CC2=O)N1 (centres undefined)
0.61 | CN(C)S(=O)(=O)c1ccc(C(=O)NCCn2ccc3ccccc32)cc1
-0.1 | Cc1noc(C)c1CSc1ccc2ccccc2n1
-0.38 | COc1cc(Br)c(C2CC(=O)Nc3cc4c(cc32)OCCO4)cc1OC (centres undefined)

Continuation:
Measles inh | Structure
1.26 | COCCCN1C(=O)C(=O)/C(=C(/O)c2ccccc2)C1c1cccc(OC)c1 (centres undefined)
-0.94 | COc1ccccc1C(=O)N1CC(=O)Nc2ccc(Br)cc2C1c1ccccc1 (centres undefined)
-0.64 | CCOc1ccc(N2C(=O)C3CC(C)=C(C)CC3C2=O)c([N+](=O)[O-])c1 (centres undefined)
-0.87 | Cc1cc(C)nc(/N=C(/NC(=O)c2ccccc2)Nc2cc(C(F)(F)F)ccc2Cl)n1
-0.49 | CCN1CCN(Cc2c(O)ccc3c(=O)c(Oc4ccccc4C(C)C)c(C(F)(F)F)oc23)CC1
-1.13 | O=C(NCCC1=CCCCC1)c1ccc2c(c1)N(Cc1ccccc1Cl)C(=O)CS2
0.47 | Cc1ccc2nc(-c3ccc(N4CCOCC4)cc3)c(Nc3ccc4c(c3)OCO4)n2c1
-0.56 | COc1cc(-n2c(=O)c3ccccc3n(CC(N)=O)c2=O)cc(OC)c1OC
-0.54 | O=C1CSC(c2ccccc2)N1c1ccc(Cl)c([N+](=O)[O-])c1 (centres undefined)
-0.27 | COC(=O)c1c(N)n(-c2ccc(C)c(C)c2)c2nc3ccccc3nc12
0.01 | COc1ccc(OCC2c3cc(OC)c(OC)cc3CCN2C(=O)c2ccc3c(c2)OCO3)cc1 (centres undefined)
0.42 | Cc1ccc(S(=O)(=O)Nc2cc3c(c4ccccc24)OC2(N4CCOCC4)CCCCC32)cc1 (centres undefined)
-1.29 | Cc1ccccc1N1CC(C(=O)Nc2ccc(F)cc2)CC1=O (centres undefined)
-0.72 | CCOc1ccc2nc(Nc3nc(C)c(C)c(=O)[nH]3)nc(C)c2c1
-0.09 | Clc1c(CSc2nc3ccccc3s2)nc2ncccn12
-0.91 | Cc1cccc(C(=O)Nc2cccc(NC(=O)c3ccc(F)cc3)c2)c1
0.11 | CCOc1cc(C(=O)Nc2cc(Cl)ccc2C)cc(OCC)c1OCC
-0.13 | COc1ccc(CCC(=O)Nc2c(C)nn(Cc3ccccc3Cl)c2C)cc1
1.51 | O=C(C1CCC1)N1CCc2cc(S(=O)(=O)NCc3cccs3)ccc21
0.81 | COC(=O)C1=C(C)NC(=O)NC1c1cc(Br)c(O)c(OC)c1 (centres undefined)
0.13 | O=C(Nc1ccc(O)c(-c2nc3ccccc3s2)c1)c1ccc(Cl)cc1
-0.32 | Cc1ccc(C(=O)Nc2sc3c(c2C(=O)Nc2ccccc2C)CCC(C)C3)cc1 (centres undefined)
-1.24 | Cc1ccc(C(=O)O)cc1N1C(=O)c2ccc(Oc3ccc(Br)cc3)cc2C1=O
-0.08 | COc1ccc(O)c(C2Oc3ccccc3C3CC(c4cccs4)=NN32)c1 (centres undefined)
0.95 | CC(C)(C)C(=O)CN1C(=O)C(=O)c2cc(Br)ccc21
0.36 | CCC(=O)Nc1c(-c2ccc(C)cc2)nc2c(Br)cc(Br)cn12
-0.12 | O=C1NC2=C(CCc3ccccc32)C(c2cccs2)N1 (centres undefined)
-0.44 | COc1cccc(-n2c(N)c(C(=O)Nc3ccccc3F)sc2=S)c1
0.19 | CC1=C(C(=O)OC(C)C)C(c2ccc(C(C)(C)C)cc2)N2C(=O)C(C)SC2=N1 (centres undefined)
0.01 | COc1cc(OC)cc(-n2c(=O)c3sccc3n(Cc3c(C)cc(C)cc3C)c2=O)c1
1.33 | Cc1ccccc1OCCCC(=O)NCc1ccco1
-0.22 | Cc1cc(OCC(=O)Nc2ccc(S(=O)(=O)Nc3nccs3)cc2)ccc1Br
-0.12 | CN=C(NS(=O)(=O)c1ccc(C)cc1)c1ccccc1
0.71 | Cc1ccc(NC(=O)N2CCCN(Cc3ccccc3F)C2)cc1C
-0.48 | O=C(O)CCC(=O)N(CCc1ccccc1)C1CC(=O)N(c2ccc(Br)cc2)C1=O (centres undefined)
-0.33 | CCN1CCN(c2ncnc3scc(-c4ccccc4)c23)CC1
1.58 | Cc1cc(SCC(=O)Nc2nc(-c3ccccc3)ns2)nc2ccccc12
-0.39 | Cc1ccc(-n2c(SCC(=O)Nc3ccccc3F)nc3c(c2=O)SCC3)cc1
-0.63 | Cc1cccc(CCNC(=O)c2cc(=O)[nH]c3ccc(Br)cc23)c1
-0.19 | CCc1ccc(-c2ccc(C(=O)Nc3ccc(I)cc3C)cc2)nc1

Source: PubChem
